# 2A firefly = Primary qHTS Assay for Foot and Mouth Disease Virus Antivirals against NCGC Sytravon and CBC Compound Libraries: Firefly Luciferase Signal; HEK cells with a luciferase reporter of 2A StopGo recoding; actives 0.23% (n = 120,000); Potency, µM (highest dose often 57.5 µM), for inactives: at the top dose signal change, negative = less light; active = well fitted falling curve with a large enough effect; inconclusive = small, poorly fitted or top-dose-only effect; inactive = no such curve, though single readings can be large or run the other way; further: nearly all actives have a fitted effect of over 60% in size; overnight with compound
# StopGo RLuc = Primary qHTS Assay for Foot and Mouth Disease Virus Antivirals against NCGC Sytravon and CBC Compound Libraries: Renilla Luciferase Signal. HEK cells with a luciferase reporter of 2A StopGo recoding. Potency, µM (series often up to 57.5 µM), without a hit: at the highest dose signal change, negative = less light. actives 0.32% (n = 120,000). AID 1745857, 2022; active means well fitted falling curve with a large enough effect; inconclusive means small, poorly fitted or top-dose-only effect; inactive means no such curve, though single readings can be large or run the other way; further: nearly all actives have a fitted effect of over 55% in size; overnight with compound
# * hit, by the source's call; ? = inconclusive; & = joins results of further samples; [ ] = remark or other dose. On the % scale 0 is the no-effect control and ±100 the full control effect; potency means the concentration at half of the fitted maximal effect. Only part of the results is shown; rates above refer to the full screens.
# Values run as follows: 2A firefly	StopGo RLuc
- CCCCOc1ccc(CN2C(=O)C(=O)c3cc(Br)cc(C)c32)cc1OC
  -9%	8%
- COc1ccc(OC)c(C2C3=C(CC(C)(C)CC3=O)Nc3nc(-c4cccc(C)c4)nn32)c1 (stereo not given)
  4%	-11%
- COc1ccccc1CNc1nc2c(S(=O)(=O)c3ccccc3)nnn2c2ccc(Cl)cc12
  -2%	0%
- O=C(NCC(F)(F)F)c1ccc(CN(C(=O)/C=C/c2ccccc2)C2CC2)cc1
  71%[activator]	32%
- COCCCNc1oc(-c2cccc(C)c2)nc1C#N
  55%[activator]	0%
- Cc1ccsc1CNC(=O)c1cccnc1
  -4%	1%
- CCCN(CC#N)CC(=O)NC(=O)NCc1ccccc1
  -5%	1%
- Cn1c(=O)c(=O)n(C)c2cc(N3CCOCC3)c(NS(=O)(=O)c3ccc(C(C)(C)C)cc3)cc21
  -2%	111%[activator]
- CCn1c2ccccc2c2cc(CN3CCN(Cc4ccc(Br)cc4)CC3)ccc21
  -22%	?
- CCOC(=O)c1c(-c2ccccc2)csc1NC(=O)c1cc(-c2cccc(OC)c2)on1
  -3%	-24%
- COc1ccc(S(=O)(=O)N2CCN(CC(=O)Nc3ccc(Cl)c(C(F)(F)F)c3)CC2)cc1
  ?	?
- Cc1c(NC2=NS(=O)(=O)c3ccccc32)cccc1C(=O)O
  83%[activator]	-3%
- CC(NC(=O)c1ccccc1NC(=O)CSc1nncn1-c1ccccc1F)c1ccccc1 (stereo not given)
  8%	33%
- CCc1nnc(NC(=O)c2cc(OC)c(OC)cc2OC)s1
  35%[activator]	15%
- O=[N+]([O-])c1ccc2nonc2c1Nc1ccc(Cl)cc1
  2%	1%
- Cc1ccc(C2SCCN2C(=O)c2cc3ccccc3oc2=O)cc1 (stereo not given)
  1%	18%
- CNC(=O)NC(=O)CSc1nnc(-c2ccccc2Cl)n1-c1cccc(C(F)(F)F)c1
  -3%	0%
- C=C(C)Cn1c(SC/C=C/C)nc2c1c(=O)n(C)c(=O)n2C
  0%	-4%
- Fc1ccc(CNCc2cccc(OCc3ccccc3)c2)cc1
  62%[activator]	39%[activator]
- COc1ccc(S(=O)(=O)Nc2ccc(-c3cn4c(C)csc4n3)cc2)cc1
  -28%	40%[activator]
- Cc1ccc(-c2ccccc2)c(Oc2cccc(C#N)c2C#N)c1
  8%	59%[activator]
- CCOC(=O)C(NC(=O)c1ccccc1)c1c(C)nn(-c2ccccc2)c1C (stereo not given)
  0%	4%
- CCCCc1c(C)nc2ccc(C)cc2c1SCC(=O)O
  -3%	-1%
- CNC(=O)NC(=O)C(C)Sc1ccc(Br)cc1 (stereo not given)
  3%	-6%
- CCCCCNS(=O)(=O)c1ccc(N2CCCCS2(=O)=O)cc1
  ?	21%
- CN(CC(O)COC(CCl)CCl)S(=O)(=O)O (stereo not given)
  5%	0%
- O=c1c2ccccc2nc2sc(Nc3cccc(C(F)(F)F)c3)nn12
  6%	8%
- Cc1ccc2nc(/C(C#N)=C/c3cc(I)cc(I)c3OCc3ccccc3)[nH]c2c1
  45%[activator]	-6%
- O=[N+]([O-])c1cccc(NC(c2ccccc2)c2ccccc2)c1
  13%	-2%
- Cc1nnc2ccc(SCC(=O)Nc3ccccc3)nn12
  89%[activator]	-5%

# Next structures.
# Values run as follows: 2A firefly	StopGo RLuc
- COC(=O)c1cc(OC)c(OC)c(OC)c1NC(=O)c1cc(=O)n(C)c(=O)n1C
  -11%	-14%
- CN(c1ccc(OCC(=O)N2CCN(c3ccc(F)cc3)CC2)cc1)S(=O)(=O)c1cccs1
  -41%	?
- CC1(C)CC(CC(=O)O)(c2cccc(C(F)(F)F)c2)CCO1 (stereo not given)
  8%	6%
- CCOc1ccc(NC(=O)C(C)Oc2ccccc2Cl)c2cccnc12 (stereo not given)
  2%	-8%
- COc1ccc(-n2nnc(-c3nc(-c4cccs4)no3)c2N)cc1
  58%[activator]	6%
- Cc1nc2c(cnn2C(C)C)cc1C(=O)Nc1nc(-c2ccc3c(c2)OCO3)cs1
  ?	?
- O=C(CSCc1ccc(F)cc1)N1CCc2c([nH]c3ccccc23)C1c1ccc(Cl)cc1 (stereo not given)
  ?	-31%
- COc1ccc(C2CC(=O)N(Cc3ccccc3C)c3c2c(C)nn3-c2nc(C)cc(C)n2)c(OC)c1 (stereo not given)
  10%&-16%	15%&-8%
- O=S1(=O)C=CC(N(Cc2ccccc2)Cc2cccc(F)c2)C1 (stereo not given)
  -8%	-14%
- COC(=O)[C@]12C[C@H](CC(=O)NCCc3ccccc3OC)C(=O)N(Cc3cccc4ccccc34)C1=C[C@H](C(C)C)O[C@@H]2C1CC1
  ?	?
- CCCCc1c(C)c2ccc(OCC(C)=O)c(C)c2oc1=O
  37%[activator]	58%[activator]
- CCN(C(=O)C1CCN(S(=O)(=O)c2ccc3c(c2)CCCN3C(C)=O)CC1)c1cccc(C)c1
  -14%	18%
- CCOc1ccc(-c2nonc2NC(=O)c2oc3ccc(F)cc3c2C)cc1OCC
  -8%	-8%
- C=CCN(CC=C)Cc1c(C)[nH]c2c(C)cccc2c1=O
  0%	-7%
- COc1ccc(NC(=O)Cn2c(=O)n(CCC(=O)NCCc3ccc(OC)c(OC)c3)c(=O)c3ccccc32)cc1Cl
  -6%	0%
- O=C1/C(=C\c2ccc(Br)cc2)N2CCC1CC2
  72%[activator]	-7%
- CCOC(=O)c1c(Nc2ccccc2)nnc(-c2ccccc2)c1-c1ccccc1
  ?	?
- Clc1cc(Cl)c(N/N=C/c2ccccc2I)c(Cl)c1
  17%	7%
- CSc1nc(C)c(CCC(=O)NC(c2ccc(Cl)cc2)C(C)C)c(C)n1 (stereo not given)
  5%	4%
- COc1cccc(CNc2nc(NCc3cccc(OC)c3)n(S(=O)(=O)c3ccc(C)cc3)n2)c1
  -12%	36%
- CCc1ccc(NC(=O)Cn2c3ncccc3c(=O)n2-c2ccc(C)c(C)c2)cc1
  -3%	4%
- CCOC(=O)C1=C(N)Oc2cc(O)ccc2C1c1cccc(Cl)c1 (stereo not given)
  3%	2%
- CCN(C(=O)Cn1c(=O)n(CCC(=O)Nc2ccc(F)cc2)c(=O)c2sccc21)c1ccccc1
  -7%	7%
- COc1ccc2c(c1)c1c(c(=O)n(CCc3ccccc3)c(=O)n1Cc1ccc(Cl)cc1)n2C
  -2%	-3%
- COC(=O)c1cc2oc(C)cc2n1Cc1cc(C)ccc1C
  4%	7%
- CNc1snc(C)c1C(=O)OC(C)C(=O)NC1CCCC1 (stereo not given)
  -4%	2%
- COC(=O)c1ccc(NC(=O)CN2C(=O)c3cccc4cccc2c34)cc1
  -5%	5%
- O=C(O)C1C(c2ccccc2)C(C(=O)O)C1c1ccccc1 (stereo not given)
  0%	19%
- Cc1cccc(CN2C(=O)CN=C(c3ccccc3Cl)c3cc(Cl)ccc32)c1
  ?	?
- CCc1ccccc1Nc1nn2c(=O)c3ccc(C(=O)NCc4ccc(C)cc4)cc3nc2s1
  -6%	-11%

# Exported tab-delimited: part of the list above
SMILES	2A firefly	StopGo RLuc
O=C1/C(=C\c2ccc(Br)cc2)N2CCC1CC2	72%[activator]	-7%
CCOC(=O)c1c(Nc2ccccc2)nnc(-c2ccccc2)c1-c1ccccc1	?	?
Clc1cc(Cl)c(N/N=C/c2ccccc2I)c(Cl)c1	17%	7%
CSc1nc(C)c(CCC(=O)NC(c2ccc(Cl)cc2)C(C)C)c(C)n1 (stereo not given)	5%	4%
COc1cccc(CNc2nc(NCc3cccc(OC)c3)n(S(=O)(=O)c3ccc(C)cc3)n2)c1	-12%	36%
CCc1ccc(NC(=O)Cn2c3ncccc3c(=O)n2-c2ccc(C)c(C)c2)cc1	-3%	4%
CCOC(=O)C1=C(N)Oc2cc(O)ccc2C1c1cccc(Cl)c1 (stereo not given)	3%	2%
CCN(C(=O)Cn1c(=O)n(CCC(=O)Nc2ccc(F)cc2)c(=O)c2sccc21)c1ccccc1	-7%	7%
COc1ccc2c(c1)c1c(c(=O)n(CCc3ccccc3)c(=O)n1Cc1ccc(Cl)cc1)n2C	-2%	-3%
COC(=O)c1cc2oc(C)cc2n1Cc1cc(C)ccc1C	4%	7%
CNc1snc(C)c1C(=O)OC(C)C(=O)NC1CCCC1 (stereo not given)	-4%	2%
COC(=O)c1ccc(NC(=O)CN2C(=O)c3cccc4cccc2c34)cc1	-5%	5%
O=C(O)C1C(c2ccccc2)C(C(=O)O)C1c1ccccc1 (stereo not given)	0%	19%
Cc1cccc(CN2C(=O)CN=C(c3ccccc3Cl)c3cc(Cl)ccc32)c1	?	?
CCc1ccccc1Nc1nn2c(=O)c3ccc(C(=O)NCc4ccc(C)cc4)cc3nc2s1	-6%	-11%

# Next section:
# Values run as follows: 2A firefly	StopGo RLuc
- Cc1cccc(NC(=O)N2CCN(Cc3nc(-c4cccc(C(F)(F)F)c4)no3)CC2)c1
  ?	?
- Cc1cccc2c(CCN)c[nH]c12
  -9%	-9%
- COc1cccc(NC(=O)CCc2c(C)nc3nc(CNC(=O)c4cccc(F)c4)nn3c2C)c1
  8%	-4%
- CCC(=O)Nc1ccc(/C(C)=N/O)cc1
  75%[activator]	6%
- CCOC(=O)Oc1ccc2c(=O)c(Oc3cccc(C)c3)c(C(F)(F)F)oc2c1
  ?	7%[1.06 µM]
- Cc1ccc(N2CC(NC(=O)CCCc3ccccc3)CC2=O)cc1 (stereo not given)
  -21%	4%
- Cc1oc2c(c(C)cc3oc(=O)c(CC(=O)NCCc4ccc(Cl)cc4)c(C)c32)c1C
  -12%	-11%
- Cc1nc(NCCC(C)C)sc1C(=O)Nc1ccccc1
  1%	9%
- CC(C)Oc1ccc(C(=O)N2CCN(c3nc4sc5c(c4c(=O)n3C)CCCC5)CC2)cc1
  -7%	-4%
- CC1CN(C(=O)CCC(=O)NCc2cccc(Cl)c2)c2ccccc2S1 (stereo not given)
  1%	0%
- COc1cccc(COC(=O)c2nn(-c3ccccc3)nc2N)c1
  4%	10%
- COc1cc(OC)c(NC(=O)CN(C)S(=O)(=O)c2ccc3c(c2)CCCC(=O)N3)cc1Cl
  21%	20%
- CN(Cc1ccc(Cl)c(Cl)c1)C(=O)Cn1nnn(-c2cccs2)c1=O
  -4%	-12%
- COc1cccc(C2c3c(oc4cc(C)cc(C)c4c3=O)C(=O)N2CCc2ccc(OC)c(OC)c2)c1 (stereo not given)
  -5%	-7%
- C[C@@H]1OCN(C)[C@H]2C[C@H]3c4[nH]c5cccc(-c6ccccc6)c5c4CCN3C[C@@H]12
  -5%	0%
- COC(=O)C1=C(C)N(c2ccccc2)C(=O)CC1C(=O)Nc1ccccc1 (stereo not given)
  -3%	-8%
- Cc1sc2c(c1C)c(=O)n(-c1ccccc1)c(=O)n2CC(=O)c1ccc(Cl)cc1
  0%	3%
- COc1ccc(COc2ccc(C#N)cc2OC)cc1
  0%	16%
- COC(CNC(=O)c1ccc(CNC(=O)c2cccc(Br)c2)cc1)OC
  -7%	-2%
- CCNC(=O)NCC12CC3CC(CC(C3)C1)C2
  46%[activator]	20%
- O=C(O)C/C(=C/c1ccc(Cl)cc1)c1nc2ccccc2s1
  46%[activator]	10%
- COc1ccc(Nc2cc(-n3ncc(C(C)=O)c3C)nc(C)n2)cc1
  4%	-6%
- COCCCn1c(-c2ccc(OC)cc2)nc2c1c(=O)[nH]c(=O)n2Cc1ccccc1
  -13%	-9%
- COc1cc(OC)c(OC)cc1/C=C1\Oc2cc(OC(=O)C(C)(C)C)ccc2C1=O
  -3%	3%
- O=C(O)CCn1cc(C(C(=O)O)N2CCN(Cc3cccnc3)CC2)c2ccc(F)cc21 (stereo not given)
  2%	-3%
- CCCCCNC(=O)c1ccncc1
  10%	-4%
- CCC(=O)Nc1sc2c(c1C(=O)Nc1ccc(OC)cc1)CCC(C(C)(C)C)C2 (stereo not given)
  11%&-4%	12%&-13%
- Cc1oc(-c2nc(C#N)c(N3CCCCCC3)o2)cc1S(=O)(=O)N1CCCC1
  -17%	4%
- O=C(CSc1ncnc2sc3c(c12)CCCCC3)Nc1ccc2c(c1)OCCO2
  0%	-9%
- COC(=O)c1ccc(NS(=O)(=O)c2ccc(C)cc2)c(C)c1
  89%[activator]	142%[activator]

# Continued, starting with the last 2 of the part before.
# Values run as follows: 2A firefly	StopGo RLuc
- O=C(CSc1ncnc2sc3c(c12)CCCCC3)Nc1ccc2c(c1)OCCO2
  0%	-9%
- COC(=O)c1ccc(NS(=O)(=O)c2ccc(C)cc2)c(C)c1
  89%[activator]	142%[activator]
- Cc1cccc(/C=C/C(=O)N(Cc2ccco2)C2CC2)c1
  92%[activator]	83%[activator]
- CCOc1ccc(CNC(=O)Cn2nc(C)c3nn(-c4ccc(Cl)cc4)c(C)c3c2=O)cc1OC
  0%	-6%
- CCCC1(CCC)NC(=O)N(Cc2ncc(-c3ccc(F)cc3)o2)C1=O
  5%	-4%
- Cn1nc(C(=O)NC2CCCCC2)c(Cl)c1C(F)(F)F
  94%[activator]	1%
- Cc1cccc(C(=O)Nc2ccccc2C(=O)OCc2cc(=O)n3nc(C4CC4)sc3n2)c1
  -12%	-2%
- CCCCOc1ccc(C(=O)N(Cc2ccccc2)C2CCS(=O)(=O)C2)cc1 (stereo not given)
  0%	14%
- COc1ccccc1-c1nc(C#N)c(NCc2ccc(Cl)cc2)o1
  94%[activator]	125%[activator]
- O=C(COC(=O)c1cc(-c2ccccc2)nc2ccccc12)c1ccc(Br)cc1
  21%	8%
- COc1cccc(CSc2nc3n(n2)C(c2cccc(F)c2)C(C(=O)Nc2ccccc2C)=C(C)N3)c1 (stereo not given)
  -13%	-5%
- Cc1ccc(-c2nnc(Nc3ccc(C(N)=O)cc3)c3ccccc23)cc1S(=O)(=O)N1CCCCC1
  0%	-8%
- Cc1sc(NC(=O)C(c2ccccc2)c2ccccc2)c(C#N)c1C
  -3%	-6%
